Compound activity deposited in PubChem BioAssay by several laboratories.
T cruzi repl: blocks replication of Trypanosoma cruzi. T. cruzi beta-gal in NIH3T3, luminescence, 90 h. actives 1.4% (n = 300,000). inhibition, % (concentration not given with the values);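 active means mean inhibition across valid replicates above about 55%, limit read from the data; inconclusive means mean below that limit but half or more replicates reach it; inactive means mean below it, under half of replicates reach it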;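 further: signal also drops with host cell toxicity which is not excluded here; 0% = plate median of DMSO wells and 100% = zero luminescence signal; higher percent means less beta-gal luminescence so fewer parasites; stock transfer was 50 nL into about 50 µL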
RanGTP-Impb inh: inhibitors of RanGTP-importin-beta interaction, primary screen, biochemical, FRET, CFP-Ran, YFP-importin-beta, homogeneous. cell-free CFP-Ran/YFP-importin-beta FRET ratio. inhibition, % (test concentration not listed). actives 1.1% (n = 300,000). AID 2216;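 active means most replicates above 15%; inconclusive means exactly half above 15%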;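 further: 0% = DMSO wells and 100% = Ran loaded with GDP instead of GTP; wells of about 40 µL received 100 nL stock; the first replicate is given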
Vif TR-FRET: HIV-1 Vif–A3G interaction blockers – biochemical, TR-FRET, GST-Vif 1-94, biotin-A3G peptide, dose response retest, primary screen (AID 1117319); actives 0.57% (n = 260,000); one-dose inhibition, %; IC50 in µM for titrated hits; TR-FRET GST-Vif / biotin-A3G peptide binding; higher % means a stronger effect; test concentration not given here; strong numbers were not always called active;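 active means above the screen mean plus three standard deviations and confirmed in dose response; inconclusive means results disagree or hit not tested in dose response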;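 further: Vif residues 1-94 fused to GST binding biotinylated APOBEC3G peptide 110-148; 0% = full assay without inhibitor and 100% = GST in place of GST-Vif; retest series ran down from 100 µM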
Beta apoptosis: blocks beta cell apoptosis; INS-1E cytokine-induced death, ATP luminescence, 48 h; percent of positive-control rescue, neutral wells zero; protection from apoptosis, % (concentration not given with the values); actives 0.8% (n = 300,000);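 active means all replicates at 75% or more, or half of them and the mean; inconclusive means half reach 75% but not the mean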;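 further: 0% = cytokine-treated negative control wells and 100% = positive control rescue; higher means more ATP so stronger rescue from cytokine killing; wells of about 40 µL received 100 nL stock; the first replicate is given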
A1 inh: inhibitors of the anti-apoptotic protein A1, read as caspase activation; caspase activation, % (concentration not given with the values); AID 2462; MEF A1-2A-BIM cells, Caspase-Glo 3/7 luminescence, 3 h; percent of clofoctol response, vehicle zero; actives 0.066% (n = 330,000);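 active means over half of replicate activation scores above 10%, or exactly half above 10 with the replicate mean above 10; inconclusive means replicate mean below 10 yet half the replicates above 10; inactive means over half of replicates below 10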;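 further: wells of about 30 µL received 50 nL stock; many hits fall short of the cut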
AF4-AF9 inh: MLL-AF4/AF9 protein interaction inhibition. AlphaScreen, biotin-AF4 peptide binding to FLAG-AF9. inhibition, % at 10 µM. actives 0.47% (n = 350,000);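 active means every replicate reaching a set inhibition limit, whatever the replicate mean, cut at about 25% in these data; inconclusive means mean inhibition reaches that limit but some replicates miss it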;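 further: 0% = plate neutral control median and 100% = total signal loss; the record names both 10 and 1 µM as test concentration; the first replicate is given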
Target sequence (P42568 whole entry, looked up): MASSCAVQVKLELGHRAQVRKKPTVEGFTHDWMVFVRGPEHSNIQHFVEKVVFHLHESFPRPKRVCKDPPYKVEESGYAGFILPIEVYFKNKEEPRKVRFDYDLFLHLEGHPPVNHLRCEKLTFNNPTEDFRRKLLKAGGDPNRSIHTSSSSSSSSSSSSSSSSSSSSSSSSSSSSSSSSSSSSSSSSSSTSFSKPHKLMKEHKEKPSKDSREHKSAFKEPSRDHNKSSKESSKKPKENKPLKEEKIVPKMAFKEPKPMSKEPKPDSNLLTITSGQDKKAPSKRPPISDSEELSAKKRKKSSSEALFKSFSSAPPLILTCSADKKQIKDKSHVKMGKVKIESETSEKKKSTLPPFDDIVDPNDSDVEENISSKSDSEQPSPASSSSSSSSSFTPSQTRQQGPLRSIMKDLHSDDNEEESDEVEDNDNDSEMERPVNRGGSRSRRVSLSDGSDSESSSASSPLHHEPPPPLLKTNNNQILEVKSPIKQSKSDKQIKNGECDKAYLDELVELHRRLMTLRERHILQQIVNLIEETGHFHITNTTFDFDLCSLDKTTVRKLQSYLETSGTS
Calb FLC: C. albicans growth modulation with fluconazole | growth inhibition, % (no concentration beside the values) | actives 0.57% (n = 300,000) | AID 1979 | C. albicans CaCi-2 (fluconazole-resistant clinical isolate) + fluconazole, Alamar Blue growth, 48 h;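 active means most replicates above 75%; inconclusive means exactly half above 75%; inactive means most below 75%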;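 further: all wells also contain fluconazole at 8 µg/ml as a sub-toxic cotreatment; 0% = median of DMSO wells and 100% = median of geldanamycin control wells; wells of about 8 µL received 7.5 nL stock; the first replicate is given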
LANA-H2B inh: blocks KSHV LANA binding to histone H2A/H2B; cell-free LANA-H2A/H2B peptide, fluorescence polarization; actives 0.6% (n = 320,000); inhibition, % (concentration not given with the values); Q9QR71; in the data active means inhibition mostly above about 10%, no sharp cut-off; inactive means mostly below about 6.7%;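 further: stock transfer was 7.5 nL into about 10 µL; 0% = median of vehicle wells and 100% = median of positive control wells; one replicate is shown; the record names a cut of 25% in any replicate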
Numbers without * were called inactive; u = inconclusive; x = no result given; & = joins results of further samples.

SMILES	T cruzi repl	RanGTP-Impb inh	Vif TR-FRET	Beta apoptosis	A1 inh	AF4-AF9 inh	Calb FLC	LANA-H2B inh
Cc1ccc(Sc2nc3c(c(=O)[nH]c(=O)n3C)n2CCc2ccccc2)cc1	x	x	11%	2	0.3	-11	x	1.6
COC(=O)c1ccc(COC(=O)c2cccnc2Cl)cc1	8	-3.7	x	x	-9.3	0.5	11	-1.9
COc1ccc(N(CC(=O)NCc2cccnc2)S(=O)(=O)c2ccccc2)c(OC)c1	3	-1.3	-5%	-2	0.2	2.3	-2	4.1
O=C(Nc1cccc(OC(=O)c2ccc(Br)o2)c1)c1ccccc1	-7	0.2	-4%	-5	-1.6	-3.4	-4	3.6
S=c1[nH]nc(C2CCCCC2)n1/N=C/c1ccccc1Cl	-2	5.3	-1%	x	0.7	-6.3	37	-4.4
Cc1ccccc1Nc1ncc(C#N)c(N)n1	4	7.0	3%	-1	1.1	0.2	-4	-2.7
c1nc(N2CCCCC2)c2[nH]cnc2n1	-10	1.4	u	-7	0.5	-1.2	-1	0.0
O=C(c1ccc2ncsc2c1)N1CCN(c2ccc(O)cc2)CC1	4	-0.1	10%	-2	0.3	x	u	2.5
COc1ccc(OC)c(C2NC(=O)NC(C)=C2C(=O)Nc2ccc(C)cc2C)c1 (stereo not drawn)	-5	-2.2	0%	-5	0.2	x	-10	1.2
O=C(NCCOc1ccc(Cl)cc1)c1cccc(S(=O)(=O)N2CCCC2)c1	x	x	-4%	-1	0.1	-2.1	x	-1.7
CNC(=O)C(=O)NCCc1ccc(Cl)cc1	-1	-4.4	8%	-2	2.5	x	-15	-1.7
CCNC(=O)CC1C(=O)N(c2ccccc2)C(=O)N1CCc1ccc(OC)c(OC)c1 (stereo not drawn)	-12	1.5	2%	-3	-0.2	x	-14	-3.9
CC(C)C(NC(=O)C12CC3CC(CC(C3)C1)C2)C(=O)N/N=C/C1=C(N2CCOCC2)C(=C\c2ccc([N+](=O)[O-])cc2)/CC1 (stereo not drawn)	23	-2.7	31%	21	-0.4	-1.4	0	-0.9
COc1ccc(-n2ncc3c2CC(C)(C)CC3NC(=O)c2cnc(C)cn2)cc1 (stereo not drawn)	-10	2.9	x	0	0.3	-0.9	1	3.2
CC(C)CC(NC(=O)OC(C)(C)C)c1cn([C@@H](CCC(=O)OC(C)(C)C)C(=O)N2CCN(C(=O)OC(C)(C)C)CC2)nn1 (stereo partly drawn)	6	1.1	16%	8	-0.5	1.2	23	-3.7
Cc1c(Cl)ccc2c1NC(=O)C21NC(CCC(N)=O)[C@H]2C(=O)N(c3ccc(Cl)cc3)C(=O)[C@H]21 (stereo partly drawn)	-11	-2.1	-4%	-1	-0.1	x	4	-2.9
O=C(c1ccccc1)N1N=C(c2ccccc2)CC1c1ccccc1 (stereo not drawn)	16	-2.2	-8%	13	-0.2	-1.6	4	-3.7
CS(=O)(=O)N1CCN(c2ccc(NC(=O)c3ccc([N+](=O)[O-])o3)cc2)CC1	4	1.6	20%	x	x	-0.9	8	x
COc1ccc(CNC(=O)CN(Cc2ccccc2)C(=O)CCC(=O)Nc2nccs2)cc1	16	1.5	x	-2	-0.2	1.3	8	-9.6
Cc1ccc(S(=O)(=O)NN2C(=O)c3ccccc3NC2c2ccco2)cc1 (stereo not drawn)	6	2.2	3%	-3	0.2	-2.5	-6	-0.5
CN(c1ccccc1)S(=O)(=O)c1cccc(C(=O)OCC(=O)Nc2ccc(C(N)=O)cc2)c1	x	x	0%	-2	0.2	-4.5	x	-1.6
Cc1cccc(NC(=O)CSc2nnc([C@H](C)NC(=O)OC(C)(C)C)o2)c1C	-15	1.4	x	-7	-0.6	-4.6	1	2.9
COc1ccc(NC(=S)N(CCCN2CCC(C)CC2)Cc2cccs2)cc1	14	-2.5	12%	-2	0.5	7.6	-16	3.0
O=C(Cn1c(NCCO)nc2ccccc21)Nc1cccc(S(=O)(=O)N2CCCC2)c1	x	x	4%	-6	-0.1	0.9	x	-0.8

10 of the compounds above, as comma-separated lines:
canonical_smiles,T cruzi repl,RanGTP-Impb inh,Vif TR-FRET,Beta apoptosis,A1 inh,AF4-AF9 inh,Calb FLC,LANA-H2B inh
CCNC(=O)CC1C(=O)N(c2ccccc2)C(=O)N1CCc1ccc(OC)c(OC)c1 (stereo not drawn),-12,1.5,2%,-3,-0.2,x,-14,-3.9
CC(C)C(NC(=O)C12CC3CC(CC(C3)C1)C2)C(=O)N/N=C/C1=C(N2CCOCC2)C(=C\c2ccc([N+](=O)[O-])cc2)/CC1 (stereo not drawn),23,-2.7,31%,21,-0.4,-1.4,0,-0.9
COc1ccc(-n2ncc3c2CC(C)(C)CC3NC(=O)c2cnc(C)cn2)cc1 (stereo not drawn),-10,2.9,x,0,0.3,-0.9,1,3.2
CC(C)CC(NC(=O)OC(C)(C)C)c1cn([C@@H](CCC(=O)OC(C)(C)C)C(=O)N2CCN(C(=O)OC(C)(C)C)CC2)nn1 (stereo partly drawn),6,1.1,16%,8,-0.5,1.2,23,-3.7
Cc1c(Cl)ccc2c1NC(=O)C21NC(CCC(N)=O)[C@H]2C(=O)N(c3ccc(Cl)cc3)C(=O)[C@H]21 (stereo partly drawn),-11,-2.1,-4%,-1,-0.1,x,4,-2.9
O=C(c1ccccc1)N1N=C(c2ccccc2)CC1c1ccccc1 (stereo not drawn),16,-2.2,-8%,13,-0.2,-1.6,4,-3.7
CS(=O)(=O)N1CCN(c2ccc(NC(=O)c3ccc([N+](=O)[O-])o3)cc2)CC1,4,1.6,20%,x,x,-0.9,8,x
COc1ccc(CNC(=O)CN(Cc2ccccc2)C(=O)CCC(=O)Nc2nccs2)cc1,16,1.5,x,-2,-0.2,1.3,8,-9.6
Cc1ccc(S(=O)(=O)NN2C(=O)c3ccccc3NC2c2ccco2)cc1 (stereo not drawn),6,2.2,3%,-3,0.2,-2.5,-6,-0.5
CN(c1ccccc1)S(=O)(=O)c1cccc(C(=O)OCC(=O)Nc2ccc(C(N)=O)cc2)c1,x,x,0%,-2,0.2,-4.5,x,-1.6

(next part)
SMILES	T cruzi repl	RanGTP-Impb inh	Vif TR-FRET	Beta apoptosis	A1 inh	AF4-AF9 inh	Calb FLC	LANA-H2B inh
O=C(NCCCn1ccnc1)c1cc(-c2ccc(Br)cc2)on1	-1	-2.2	-2%	9	-0.5	-16	3	2.0
COc1ccc(C(=O)NCC(=O)OCC(=O)NC2CCCCCC2)cc1	x	x	-6%	7	0.1	-7.3	x	-2.0
COc1ccc(CCN(C)C(=O)c2c(C)noc2C)cc1OC	x	x	3%	1	-0.4	3.6	x	2.2
COc1cccc(-c2nc(CS(=O)(=O)CC(=O)Nc3ccc(F)cc3F)c(C)o2)c1	9	0.1	-3%	-3	0.0	-1.9	-14	1.6
O=C(/C=C/c1cc([N+](=O)[O-])ccc1OC(F)F)Nc1cccc(OC(F)F)c1	20	4.0	8%	6	0.6	-2.4	u	-3.0
O=C(O)CCc1ccc(-c2ccccc2)n1CC1CCCO1 (stereo not drawn)	-8	1.2	6%	-1	0.3	x	-2	-1.1
Cc1cccc(C(=O)NCCc2nnc(SCC(=O)Nc3cccc(C(=O)O)c3)n2C)c1	x	x	8%	-6	-1.9	2.4	-16	3.8
O=C(c1ccc(Cl)cc1)c1nnc(-c2ccncc2)o1	-16	-5.0	-1%	-6	-2.0	x	2	-2.2
CC(C)n1c(O)c(/C=C2\C=Nc3ccccc32)sc1=Nc1ccccc1	25	1.0	-2%	10	-1.0	x	-2	4.6
Cc1ccc(C)c(-c2[nH]ncc2CN2CCCC(CO)(Cc3ccccc3C)C2)c1 (stereo not drawn)	33	2.9	-10%	5	1.3	8.4	-10	2.9
CC1CCC(NC(=O)CN2C(=O)c3ccccc3S2(=O)=O)CC1 (stereo not drawn)	x	x	x	-6	0.0	-3.8	x	-2.7
CC(C)N(Cc1ccccc1)C(=O)/C=C/c1ccccc1[N+](=O)[O-]	27	1.9	-7%	-5	0.0	2.4	20	0.8
C=CCn1c(SCC(=O)O)nnc1-c1ccccc1	1	6.5	x	-13	-0.2	x	6	4.0
Clc1ccc(-n2cc(-c3ccc(Br)cc3)[n+]3c2CCCCC3)cc1	42	5.0	7%	62	0.1	2.0	-8	-1.2
Cc1csc(SCc2nc3sc4c(c3c(=O)[nH]2)CCC4)n1	0	4.7	-5%&16%	x	x	x	14	x
O=C(N/N=C/c1cn(Cc2ccccc2)c2ccccc12)c1ccncc1	2	-0.5	9%	3	1.0	12	5	-4.7
CCN(CC)S(=O)(=O)c1ccc(OC)nc1	-12	-1.0	4%	-6	0.8	x	-5	-2.7
Cc1nc2scc(C)n2c(=O)c1S(=O)(=O)Nc1ccc(N2CCOCC2)cc1	1	-3.3	x	-1	-0.8	-17	17	-0.3
CCNS(=O)(=O)c1ccc(CCC(=O)N2CCN(c3ccccc3)CC2)cc1	7	-0.4	0%	1	0.0	-0.2	6	-3.5
COc1coc(/C=C/C(=O)O)cc1=O	-26	0.3	1%	-2	0.7	-22	-15	-1.8
CC1(C)Cc2c(C#N)c(N3CCCC3)nc(-c3ccco3)c2CO1	-9	2.4	u	-8	0.2	-7.3	14	-0.6
CCc1nnc(NC(=O)CSc2n[nH]c(-c3ccccc3O)n2)s1	0	-2.6	x	-3	-0.8	-3.3	5	-1.0
CCN(c1ccccc1)S(=O)(=O)c1ccc(C(=O)Nc2nnc(CSC)o2)cc1	-38	3.5	0%	5	-0.2	1.2	6	2.7
O=C(Nc1c(F)c(F)c(F)c(F)c1F)NC1CCCCC1	-6	-0.2	0%	8	0.4	x	-7	-0.3
O=C(NCc1ccco1)/C(=C\c1ccco1)NC(=O)c1cccs1	-18	-2.0	x	-1	0.5	-1.0	1	1.8
COc1ccc(/C=N/n2c(=S)n(C)c3ccccc32)cc1OC	-4	-3.0	-1%	-7	-0.5	x	5	0.5
Cc1cccc2nc(CSc3nnnn3-c3ccccc3)cn12	-2	-4.9	-1%	-1	0.4	x	-14	-0.6
O=C(NCCN1CCOCC1)N1CCOCC1	-2	1.1	2%	3	0.2	x	-17	-4.6
CCc1ccc(C(=O)COC(=O)c2cccc(N3C(=O)c4c(C)nc5ccccc5c4C3=O)c2)cc1	-3	6.5	-2%	-5	0.8	x	-4	-4.8
CC(C)CCN1C(=O)c2ccc(C(=O)OCC(=O)N(C)C3CCS(=O)(=O)C3)cc2C1=O (stereo not drawn)	-3	-1.1	1%	-4	0.3	0.5	6	-2.7
O=C(CSc1nnc(COc2cccc3cccnc23)o1)N1CCN(C(=O)c2ccco2)CC1	0	3.1	9%	-2	1.8	x	-5	-2.9
COc1ccc(C(=O)NCCC2=CCCCC2)cc1OC1CCN(C(C)C)CC1	30	0.3	x	7	-0.9	2.5	6	3.3
